Bioassay records deposited in PubChem BioAssay by National Center for Advancing Translational Sciences (NCATS).
gsp antagonist – antagonists of gsp mutant (McCune-Albright syndrome); gsp-mutant cells, cAMP HTRF, 30 min; control for the full effect not named in the record; Potency, µM (doses to about 76.9 µM), for the others: at the top dose activity change, negative = inhibition, actives largely listed as inhibitors; 340,000 tested, 0.4% active; AID 624288; active = falling curve of any shape with a large fitted effect; inconclusive = falling curve, mostly with a smaller effect; inactive = flat or rising curve; cell line not stated here;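 note: intracellular cAMP measured with PDE inhibitor Ro 20-1724 present during compound exposure; potency is the fitted concentration of half-maximal effect; % is set by controls: 0 for no effect and ±100 for the full control effect; nearly all actives have a fitted effect of over 65% in size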
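HTRF cAMP read-out (cAMP-d2 plus anti-cAMP antibody-K in lysis buffer, 30 min RT). Before lysis, cells are exposed to compounds with […] for 30 min at 37C in DPBS containing Ca/Mg, BSA and Tween 20.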
D2 potentiator – human D2 receptor positive allosteric modulation; P14416; DiscoveRx D2 beta-arrestin cells, luminescence, 90 min; 100% = 57 uM dopamine signal; potentiation, % (test concentration not listed); 360,000 tested, 0.23% active; AID 624464; active = potentiation of 50% or more; inconclusive = 30% to 50%; inactive = 30% or less;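 note: compound concentration not given in the record; tested on top of an EC20 dose of dopamine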
Target sequence (P14416 whole entry, looked up): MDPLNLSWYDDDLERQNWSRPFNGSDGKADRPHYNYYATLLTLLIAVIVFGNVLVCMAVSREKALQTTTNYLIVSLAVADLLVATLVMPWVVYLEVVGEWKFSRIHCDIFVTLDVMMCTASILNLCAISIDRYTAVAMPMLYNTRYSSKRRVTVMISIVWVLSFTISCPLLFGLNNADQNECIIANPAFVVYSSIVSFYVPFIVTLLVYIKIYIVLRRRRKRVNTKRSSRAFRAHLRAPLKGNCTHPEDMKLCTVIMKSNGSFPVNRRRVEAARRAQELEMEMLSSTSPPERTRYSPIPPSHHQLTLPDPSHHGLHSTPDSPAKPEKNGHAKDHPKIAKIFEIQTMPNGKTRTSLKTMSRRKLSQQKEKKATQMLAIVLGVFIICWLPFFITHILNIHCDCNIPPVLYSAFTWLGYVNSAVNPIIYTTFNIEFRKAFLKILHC
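PathHunter beta-arrestin assay in DiscoveRx D2 cells. Compounds were added with an EC20 of dopamine (50 nM final) for 90 min at 37 deg C. Luminescence was read 1 h after detection reagent, with 57 uM dopamine as the EC100 control.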
ClpP mod – qHTS Assay for Activators of ClpP. Potency, µM (doses to about 57.5 µM), inactives show top-dose activity change, negative = active. purified B. subtilis ClpP, FRET peptide cleavage, 20 min. 340,000 tested, 1.9% active; active = well fitted falling curve with a large enough effect; inconclusive = small, poorly fitted or top-dose-only effect; inactive = no such curve, though single readings can be large or run the other way; note: potency is the fitted concentration of half-maximal effect; the source files actives as falling curves though it sought activators and does not explain the sign; nearly all actives have a fitted effect of over 65% in size; many hits overshoot -100%
Target sequence (P80244 whole entry, looked up): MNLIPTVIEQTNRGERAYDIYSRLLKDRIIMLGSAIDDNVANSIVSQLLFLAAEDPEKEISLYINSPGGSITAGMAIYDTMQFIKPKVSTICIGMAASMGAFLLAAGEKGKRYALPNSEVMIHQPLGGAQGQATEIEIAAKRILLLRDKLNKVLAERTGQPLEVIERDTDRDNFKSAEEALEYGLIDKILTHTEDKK
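Purified B. subtilis ClpP, 10 microg/mL final in Tris/HCl pH8 with KCl, BSA, glycerol and Tween-20, cleaved an Abz/nitrotyrosine-quenched decapeptide. Fluorescence (ex 320, em 430) was read at 0 and 20 min at room temperature. Delta was normalized to 5.8 microM ADEP and DMSO/no-enzyme controls.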
gsp agonist – gsp mutant agonism; gsp mutant cells, cAMP HTRF, 30 min; control for the full effect not named in the record; Potency, µM (highest dose often 76.9 µM), without a hit: at the top dose activation (cAMP increase), most hits filed as activators; 340,000 tested, 0.13% active; active = well fitted activation curve with a large enough effect; inconclusive = small, poorly fitted or top-dose-only effect, or another doubt; inactive = no such curve, though single readings can be large or run the other way; cell line not stated here;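 note: phosphodiesterase inhibitor Ro 20-1724 added with compounds to block cAMP breakdown; potency is the fitted concentration of half-maximal effect; nearly all actives have a fitted effect of over 60% in size; about a fifth of the inactives were tested at one dose only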
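Cells in DMEM/10% FBS with G418 were pretreated with compounds in DMSO plus […] (300 uM stock) for 30 min at 37C. cAMP was measured by HTRF (cAMP-d2 plus anti-cAMP antibody-K) after 30 min at room temperature.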
Sfp inh – blocks B. subtilis Sfp PPTase activity; Potency, µM, inactives show max response, negative = inhibition, most hits filed as inhibitors; Q9F4F7; Biochemical Sfp PPTase activity, qHTS; AID 1490; 310,000 tested, 3.5% active; active = well fitted inhibition curve with a large enough effect; inconclusive = small, poorly fitted or top-dose-only effect, or another doubt; inactive = no such curve, though single readings can be large or run the other way;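 note: the enzyme is Sfp with the accession as filed and its product quenches rhodamine fluorescence; potency is the fitted concentration of half-maximal effect; 0% = enzyme reaction without inhibitor and -100% = no enzyme wells; top concentration of the series not given in the record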
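Sfp 15 nM + cpd, 15 min RT; start w/ rhodamine-CoA 5 uM, BHQ-2-YbbR 12.5 uM (final); 50 mM Hepes pH 7.6, 10 mM MgCl2, 0.01% NP-40, 0.01% BSA; read 525/598 nm at 0 and 30 min.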
TRPV1 potentiator – human TRPV1 potentiation; AID 540277; TRPV1-expressing cells, Fluo-8 calcium influx, capsaicin EC20 potentiation; host cell line not named in the record; control for the full effect not named in the record; 320,000 tested, 0.02% active; potentiation, % at 8.33 µM; active means potentiation above 80%; inconclusive means 30% to 80%; inactive means below 30%; note: 0% is about no effect
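Fluo-8 calcium influx in TRPV1-expressing cells, kinetic read (ex 480/em 520 nm). Compound added and read 3 min for agonist activity, followed by capsaicin at EC20 final and 2 min further read for enhancement.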
Menin MLL FP FL – menin-MLL binding inhibition, fluorescein peptide | Fluorescence polarization, fluorescein-MLL peptide displacement from menin | 290,000 tested, under 10 active | FP activity change, % at 61.4 µM | AID 1766; inconclusive = falling polarisation curve, or a change in total fluorescence; inactive = total fluorescence flat and polarisation flat or rising; no compound was filed as active; the % refers to the polarisation; negative = inhibition;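 note: % of control where 0% means no effect; inhibitors lower the polarisation; unlabelled MLL peptide was the positive control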
* = called active by the depositor; ? = inconclusive; . = no result given; [ ] = another dose, or the depositor's remark.

SMILES	gsp antagonist	D2 potentiator	ClpP mod	gsp agonist	Sfp inh	TRPV1 potentiator	Menin MLL FP FL
Cc1ccc(S(=O)(=O)N(CC(=O)Nc2ccccc2C(=O)O)c2ccc(Cl)cc2)cc1	?	0.5	.	3.2%[15.4 µM]	26.6%	-15.8	0.0
C=CCn1c(SCC(=O)Nc2cc(C)nn2-c2ccccc2)nnc1C1CCCCC1	-13.5%	-5.3	-0.1%	5.3%	0.2%	2.4	-1.0
C=CCN(c1ccc(F)cc1)S(=O)(=O)c1cc(C(=O)NC2CCC(O)CC2)ccc1Cl (stereo not given)	-15.3%	-5.9	-2.3%	6.8%	.	-16.0	.
O=C(OC(C(=O)NCc1ccccc1)c1ccccc1F)c1ccco1 (stereo not given)	6.0%	-7.2	.	-19.9%	-5.2%	3.9	5.5
Cc1ccc(OC(=O)c2ccccc2P(=O)(O)O)cc1	4.0%	-0.1	-2.2%	11.4%	2.1%	-0.5	-0.3
COc1ccc(Cc2nc(C(=O)Nc3ccc(Cl)cc3)cs2)cc1	?	2.4	-5.1%	-3.6%	-7.5%	-17.6	-0.7
CCC(=O)NC(=S)Nc1cccc(NC(=O)c2ccccc2C)c1	-22.8%	-7.1	.	-2.7%	7.2%	0.6	-0.5
Cc1ccc(N=Nc2ccc(O)c3ncccc23)cc1C	0.4%	-3.5	0.2%	-30.3%[inhibitor]	5.6%	19.3	5.3
O=c1/c(=C/c2ccc(O)c([N+](=O)[O-])c2)sc2nc3ccccc3n12	-3.7%	-3.7	.	-2.9%	2.6%	-6.2	24.0
Fc1ccc(-c2ccc(/C=N/n3cnnc3)o2)cc1	-2.0%	-2.8	-13.9%	3.6%	7.2%	5.3	2.6
Cc1c(C(=O)N2CCCCC2C)sc2nc3n(c(=O)c12)CCC3 (stereo not given)	-0.2%	-1.9	-2.7%	21.2%	8.2%	?	-0.2
Cc1cccc(C)c1OCCn1nc(C(=O)O)c2ccccc2c1=O	3.1%	-4.7	-5.2%	-10.0%	-9.5%	-8.9	0.7
COc1ccc(OC)c(NC(=O)COC(=O)c2c3c(nc4ccccc24)CCCC3)c1	-5.6%	-18.7	-0.2%	8.9%	?	3.8	4.1
CCC(C)(C)NC(=O)c1ccc2c(c1)OCCO2	-9.4%	5.1	.	-4.8%[15.4 µM]	14.7%	-3.0	-0.7
CCN(CC)S(=O)(=O)c1ccc(NC(=O)[C@@H](NC(=O)c2cc(OC)cc(OC)c2)C(C)C)cc1	-13.4%	-17.1	.	-18.7%[15.4 µM]	7.2%	-8.0	2.4
N#Cc1ccccc1NC(=S)NC(=O)C1CCC1	-9.9%	-1.6	-2.2%	-0.2%	-8.7%	-6.6	.
Cc1cccc(OCC(=O)Nc2ccc(C(=O)NCc3cccnc3)cc2)c1	.	.	.	.	-6.5%	6.1	5.1
CCCN1CCN(S(=O)(=O)c2c(C)[nH]c(C)c2C(=O)N2CCCCC2)CC1	8.9%	-2.9	0.9%	1.6%	19.3%	-2.5	-1.8
COc1ccc(S(=O)(=O)n2ccc(C(C)Oc3ccc(-c4ccccc4)c(F)c3)n2)cc1 (stereo not given)	1.6%	-29.7	-0.5%	-22.1%	14.7%	-7.0	4.2
O=C(NCCSCc1ccco1)Nc1cc(Cl)cc(Cl)c1	?	-16.6	.	5.3%	14.4%	-3.9	0.9
O=C(c1ccc2c(c1)OCCO2)C1CCN(C(=O)c2ccc(F)cc2)CC1	-7.8%	-15.1	-9.5%	-4.4%	15.1%	-12.2	-0.4
COc1ccccc1-n1nnnc1SCc1ccccc1	2.2%	-17.3	-0.8%	16.6%	-4.3%	-10.4	-0.3
Oc1ccc(-c2n[nH]c(=S)n2-c2ccc3c(c2)OCCO3)cc1	-9.5%	-4.2	-14.3%	?	79.4µM*	-10.6	2.9
Cc1ccc(N2Cc3ccccc3OC(C)C2=O)cc1 (stereo not given)	6.0%	-2.1	0.7%	14.0%	21.7%	-4.3	3.0
Cc1cc(NC(=O)Nc2ccc(F)c(Cl)c2)no1	-10.7%	3.8	-0.6%	-5.8%	18.3%	-9.1	-0.4
C(=N\Nc1ncnc2sc3c(c12)CCC3)/c1ccncc1	17.4%	-12.2	-11.8%	1.9%	?	23.4	-0.8
Cc1c(NS(=O)(=O)c2cc(NC(=O)CCN3CCCC(C)C3)ccc2Cl)c(=O)n(-c2ccccc2)n1C (stereo not given)	10.0%	-15.8	.	5.9%[15.4 µM]	3.3%	5.1	1.6
O=C(Nc1nc(-c2ccccn2)cs1)c1ccccc1-n1cnnn1	-16.8%	-4.4	-0.2%	-31.4%	15.8µM*	9.9	-0.3
CNC(=O)c1ccc(-c2nc(-c3ccccc3)cs2)cc1	-11.6%	-0.3	.	0.3%	13.7%	1.3	-0.4
COCCn1c(C)cc(/C=C2\NC(=S)N(C)C2=O)c1C	-13.3%	-9.3	1.2%	6.7%	-9.1%	?	.
CCOC(=O)N1CCN(S(=O)(=O)c2ccc(C(=O)NNc3nc4ccc(Cl)cc4s3)cc2)CC1	-2.1%	-4.3	-3.0%	-39.4%[inhibitor]	5.1%	-17.0	0.9
Cc1ccc(-c2noc(CN3CCN(c4ccccc4F)CC3)n2)cc1	-4.2%	-10.5	-1.9%	3.2%	-2.8%	26.7	4.7
CC(=O)NC1CCN(CC(=O)Nc2cccc([N+](=O)[O-])c2)CC1	19.8%	3.0	1.4%	-17.5%	3.0%	17.7	-5.0
CCCCNC(=S)N(C)/N=C/c1c(C)[nH]c2ccccc12	?	0.5	-0.5%	-4.4%[15.4 µM]	-3.8%	-0.4	15.7
Cc1cccc(NC(=O)c2ccccc2[N+](=O)[O-])n1	-4.0%	6.7	0.9%	-15.0%	0.5%	18.7	1.9
COc1cc2c(cc1NC(=O)COC(=O)CNS(=O)(=O)c1ccc(C)cc1)oc1ccccc12	?	26.2	?	-6.1%	-17.9%	-9.6	2.6
O=C(NCc1ccccc1)N1CCC(c2nc3ccccc3[nH]2)CC1	-13.0%	-9.6	0.1%	14.0%	-7.2%	-8.3	0.7
CC(CN1CCN(c2ccccc2)CC1)c1ccccc1 (stereo not given)	8.2%	-7.3	-0.8%	14.5%	?	0.5	-2.0
Cc1ccc(-c2ccc(OCC(=O)N3CCOCC3)cc2)cc1	-10.4%	-4.0	-3.4%	8.7%	-20.9%	-15.2	-2.0
COC(c1ccccc1)(c1ccccc1)C(Oc1nccc(C)n1)C(=O)O (stereo not given)	-1.5%	-4.2	-2.9%	-4.6%[15.4 µM]	13.2%	-1.1	-2.3
CCNC(=O)N1C[C@H]2CON(C)[C@H]2C[C@H]1c1ccccc1Br	.	5.7	-0.8%	20.3%	.	.	.
Cc1ccc(C(=O)OCC(=O)c2ccc(Cl)s2)s1	-19.6%	-19.0	-1.1%	?	3.2%	8.4	-0.2
COCCNC(=O)[C@H]1N2C(=O)c3ccccc3C2SC1(C)C (stereo not given in full)	18.9%	-7.5	2.1%	29.8%	-3.3%	7.5	0.3
CN(CCN1CCOCC1)C(=O)CC1C(=O)NCCN1Cc1ccccc1F (stereo not given)	3.9%	0.0	-4.1%	-18.0%[15.4 µM]	11.2%	-5.3	.
NCCNC(=O)Cc1ccc(NC(=O)Cc2ccc(Nc3ncnc4c3ncn4[C@@H]3O[C@H](CO)[C@@H](O)[C@H]3O)cc2)cc1	16.2%	-7.9	3.7%	.	-8.0%	11.0	.
CN1CCN(S(=O)(=O)c2ccc(NC(=O)c3cccc(F)c3)cc2)CC1	10.8%	-6.8	0.5%	-7.5%[15.4 µM]	-5.0%	-23.8	-1.7
Cc1c(NC(=S)Nc2ccccc2C(F)(F)F)cccc1[N+](=O)[O-]	7.5%	-6.1	-1.2%	9.0%[15.4 µM]	-22.4%	8.1	7.1
Cc1ccccc1C(=O)N1CCC(C(=O)N2CCCc3ccccc32)CC1	11.1%	3.8	1.1%	10.6%	.	9.9	.
COc1ccc(/C=C2/SC(=S)NC2=O)cc1OCc1ccccc1	?	-8.2	0.9%	-4.8%[15.4 µM]	-11.6%	-0.2	8.5
COc1ccc(NC(=O)c2cccc(S(=O)(=O)N3CCOCC3)c2)cn1	5.1%	-9.3	-2.2%	28.7%	15.2%	-8.3	?

Later entries.
SMILES	gsp antagonist	D2 potentiator	ClpP mod	gsp agonist	Sfp inh	TRPV1 potentiator	Menin MLL FP FL
O=C(/C=C/c1ccc(O)c(O)c1)c1ccccc1O	-8.0%	0.4	.	-2.7%[15.4 µM]	-10.0%	0.9	10.9
O=C(NCC1CCCO1)c1cnc(Cl)c(Cl)c1 (stereo not given)	-3.4%	-8.3	.	27.1%[15.4 µM]	12.1%	10.8	0.0
CC(NS(=O)(=O)c1ccc([N+](=O)[O-])cc1)C(c1cccs1)N1CCOCC1 (stereo not given)	-16.8%	7.8	0.4%	-42.0%	9.2%	-10.4	2.3
O=C(c1cc(=O)[nH]c2ccccc12)N1CCN(c2ccc([N+](=O)[O-])cc2)CC1	-24.8%	2.6	.	3.2%[15.4 µM]	7.4%	.	0.4
Cc1nn(CCO)c2c1C(=O)CCC2	-2.5%	-1.5	-1.9%	?	2.9%	-3.0	2.9
CCn1c(=N)c(S(=O)(=O)c2ccccc2)cc2c(=O)n3ccccc3nc21	2.8%	-4.0	.	9.9%[15.4 µM]	9.7%	3.0	23.3
Clc1ccc2c(NCc3ccco3)ncnc2c1	-0.3%[15.4 µM]	0.1	-1.7%	-0.6%	?	-2.4	-6.8
CCC1(CC)Cc2ccccc2C(=C(C#N)C#N)N1	-13.3%	-23.8	-1.5%	-1.2%	-2.0%	8.7	1.1
Cc1n[nH]c(=O)nc1N/N=C/c1ccc(O)c([N+](=O)[O-])c1	-19.5%	-26.4	-3.0%	1.2%	56.2µM*	-7.1	3.9
CC1CC(C)CN(C(=O)COC(=O)c2cc(S(=O)(=O)N3CCOCC3)ccc2F)C1 (stereo not given)	0.6%	12.6	-3.3%	-42.0%[inhibitor]	.	-2.6	.
Fc1ccc(-c2csc(N3CCSCC3)n2)cc1	.	-31.9	.	5.0%[15.4 µM]	-3.7%	16.7	-5.4
